Bioassay records (PubChem)
Mtb growth = Mycobacterium tuberculosis H37Rv growth inhibition, putative kinase inhibitor library, confirmatory dose response (AID 2842); inhibition, % at 10 µg/mL; hits with a dose series show IC90 in µg/mL; 5.2% of 24,000 active; M. tuberculosis H37Rv growth inhibition; higher % means a stronger effect; some inactives read as strong as hits;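 active = confirmed in a dose series; inconclusive = mostly over 85% at the one dose but not retested; inactive = below 85% or not confirmed; about a fifth of its hits are not listed in these tables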;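 note: bacteria incubated one week before Alamar blue readout; 0% = bacteria only wells and 100% = bacteria with high antibiotic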
* hit, by the source's call; ? = inconclusive. An excerpt (hit frequency here may not be typical).

compound	Mtb growth
Cc1cccc(NC(=O)CSc2ncnc3c2oc2ccccc23)c1C	5%
CC(=O)N1CCc2c(sc(NC(=O)c3coc4ccccc4c3=O)c2C(N)=O)C1	4%
O=C(COc1cccc2c1CCNC2=O)Nc1ccccc1	1%
Cc1cccc(C)c1NC(=O)c1sc2nc3c(cc2c1N)C(=O)CCC3	-3%
COc1ccccc1-n1c(CNC(=O)c2ccco2)nnc1SCC(=O)Nc1cccc(C)c1	1%
CCOc1ccccc1-c1nc(C(N)=O)c2[nH]c(=O)n(-c3ccc(F)cc3)c2n1	2%
COc1ccccc1-n1c(SCc2ccc([N+](=O)[O-])cc2)nc2c(c1=O)SCC2	13%
Cn1c(SCCC(=O)O)nnc1-c1ccc2c(c1)OCO2	-10%
CC(=O)Nc1ccc(NC(=O)c2ccc3noc(-c4ccccc4)c3c2)cc1	-3%
Cc1cccc(Cn2c(N3CCc4ccccc4C3)nc3c2c(=O)[nH]c(=O)n3C)c1	-6%
CC1=C(C(=O)Nc2cc(C)ccc2C)C(c2ccc(O)cc2)NC(=O)N1 (stereo not drawn)	4%
CCOC(=O)CSC1=C(C#N)C(c2ccccc2[N+](=O)[O-])C(C(=O)OC)C(=O)N1 (stereo not drawn)	-3%
O=C(CN1C(=O)c2ccccc2C1=O)Nc1nc2c(s1)COc1ccccc1-2	5%
COc1ccccc1N1C(=O)N(c2ccccc2Cl)C2CS(=O)(=O)CC21 (stereo not drawn)	-4%
COc1ccc(CCNC(=O)CSc2cc(C)[nH]c(=O)n2)cc1OC	-1%
COc1cccc(-c2ccc3nnc(SCC(=O)Nc4ccc(F)cc4)n3n2)c1	-4%
NC(=O)c1c(NC(=O)c2cc(=O)c3ccccc3o2)sc2c1CCCC2	7%
O=C(Oc1coc(CSc2ncccn2)cc1=O)c1ccc(S(=O)(=O)N2CCCC2)cc1	-7%
CCn1c(SCC(=O)Nc2cc(C)on2)nc2c(c1=O)SC(C)C2 (stereo not drawn)	-18%
O=c1[nH]ncc(N/N=C\c2ccccc2O)c1Br	-8%
Cc1cccc(C)c1NC(=O)CSC1=C(C#N)C(c2ccccc2C(F)(F)F)C2=C(CCCC2=O)N1 (stereo not drawn)	27%
CC1=C(C(=O)Nc2ccccc2C)C(c2ccncc2)n2nc(CCCO)nc2N1 (stereo not drawn)	-4%
CCOC(=O)CSc1ccc2nnc(-c3cccnc3)n2n1	-3%
Cc1cc(NC(=O)C2CCCC2)nc2c1c(=O)oc1ccccc12	7%
O=C(NC1CCCC1)c1cc2c(=O)n3ccccc3nc2s1	98%
CCCCCCNc1nc2c(c(=O)[nH]c(=O)n2C)n1CC(O)COc1cccc(CC)c1 (stereo not drawn)	-24%
O=[n+]1c2ccccc2n([O-])c2ccccc21	3.5µg/mL*
O=C(Nc1cccc(Cl)c1)c1oc2ccccc2c1NC(=O)C1CC1	-2%
Cc1ccccc1C(=O)NNc1ncnc2c1cnn2-c1ccc(Cl)c(Cl)c1	64%
Cc1cc(OCC(=O)Nc2ccc(C(=O)O)cc2)cc(C)c1Cl	-6%
O=C(CN1C(=O)CCC1=O)Nc1nc(-c2ccc(Br)cc2)cs1	5%
COc1ccc(Cl)cc1NC(=O)NC1CC(=O)N(c2ccc(C)c(C)c2)C1 (stereo not drawn)	29µg/mL*
CCc1nc2sc(C(c3ccc(Cl)c(Cl)c3)N3CCN(C(C)=O)CC3)c(O)n2n1 (stereo not drawn)	4%
COc1ccc(S(=O)(=O)c2cn(CC(=O)Nc3cc(C)ccc3C)c3ccccc3c2=O)cc1	-1%
COc1cccc(C(=O)Nc2cccc(-c3ccc4nnc(-c5cccnc5)n4n3)c2)c1	-2%
CSc1ccc2nc(Nc3ccc(F)cc3F)sc2c1	9%

Molecules shown so far containing a COOH group:
compound	Mtb growth
Cn1c(SCCC(=O)O)nnc1-c1ccc2c(c1)OCO2	-10%
Cc1cc(OCC(=O)Nc2ccc(C(=O)O)cc2)cc(C)c1Cl	-6%

The list goes on:
compound	Mtb growth
CCOc1ccc(-c2nnc3c4cc(OC)c(OC)cc4n(Cc4ccccc4)cc2-3)cc1	44%
COc1ccc(CNc2ncnc(N)c2[N+](=O)[O-])cc1	-2%
COc1ccc(-c2nnc3c4cc(OC)c(OC)cc4n(Cc4cccc(OC)c4)cc2-3)cc1	31%
O=C(Nc1ccccc1-c1nc2ccccc2[nH]1)c1ccc([N+](=O)[O-])cc1	11%
COc1cccc(C(=O)Nc2c(C(=O)Nc3cc(OC)ccc3OC)oc3ccccc23)c1	-4%
CCOC(=O)c1sc(Nc2nc3cc4c(cc3s2)OCO4)cc1C	78%
Cc1csc2ncc(C(=O)NCc3ccccn3)c(=O)n12	-5%
Nc1nc(SCC(=O)N2CCCC2)[nH]c(=O)c1NC(=O)c1cccs1	-2%
O=C(COc1ccccc1)Nc1nnc(-c2ccccc2)s1	6%
CCCc1cc(=O)[nH]c2nnc(SCc3ccccn3)n12	-11%
CCCCNS(=O)(=O)c1cc2c3c(c1)CCN3C(=O)CC2	-4%
O=C(Nc1ccon1)NC1CC(=O)N(c2ccc(F)cc2)C1 (stereo not drawn)	-2%
O=C(CCN1C(=O)/C(=C\c2ccco2)SC1=S)Nc1ccc(O)c(C(=O)O)c1	-18%
C=CCOC(=O)COc1ccc2cc(-c3ccc(OC)cc3)c(=O)oc2c1	3.6µg/mL*
CC1CCN(S(=O)(=O)c2ccc(C(=O)NNc3nc4c(Cl)cccc4s3)cc2)CC1	25µg/mL*
CCCC(=O)Nc1nnc(-c2cc(C)ccc2C)o1	2.1µg/mL*
CCOC(=O)c1c(NC(=O)c2nc3ccccc3s2)sc2c1CC(C)(C)NC2(C)C	10%
CCOc1ccc(NC(=O)CSc2nc(N)c(NC(=O)c3ccc(OC)c(OC)c3)c(=O)[nH]2)cc1	10%
Cc1cc(NC(=O)C2CCCCC2)nc2c1c(=O)oc1ccccc12	12%
Cc1[nH][nH]c(=O)c1N=Nc1ccc(S(=O)(=O)N2CCOCC2)cc1	-8%
Cc1ccc(NC(=O)C(=O)NCC2COC3(CCCC3)O2)cc1Cl (stereo not drawn)	0%
CC1(C)CC(=O)c2sc(NC(=O)CCCS(=O)(=O)c3ccccc3)nc2C1	9%
Nc1nc(SCC(=O)Nc2ccc([N+](=O)[O-])cc2)[nH]c(=O)c1NC(=O)c1cccs1	-13%
CCOC(=O)c1ccc(NC(=O)CSc2nc3c([nH]c4ccccc43)c(=O)n2-c2ccc([N+](=O)[O-])cc2)cc1	45%

Among those listed so far, these contain bromine:
compound	Mtb growth
O=c1[nH]ncc(N/N=C\c2ccccc2O)c1Br	-8%
O=C(CN1C(=O)CCC1=O)Nc1nc(-c2ccc(Br)cc2)cs1	5%

(further entries)
compound	Mtb growth
O=C(Cn1cc(C(=O)c2ccccc2)c(=O)c2cc3c(cc21)OCO3)Nc1ccc(F)cc1	8%
COc1ccc(C(=O)Nc2nnc(-c3cc(C)ccc3C)o2)c(OC)c1	13µg/mL*
O=C(CSc1nnc2ccc(-c3ccncc3)nn12)c1ccccc1	-2%
N#Cc1cccc(Nc2ncnc3c2cnn3-c2ccc(Cl)c(Cl)c2)c1	8%
CC1CC(C)CN(S(=O)(=O)c2ccc(C(=O)Nc3sc4c(c3C(N)=O)CCN(C)C4)cc2)C1 (stereo not drawn)	-4%
COc1cccc(C(=O)Oc2ccc3oc(=O)sc3c2)c1	77%
COc1ccc(-c2nc(C(N)=O)c3[nH]c(=O)n(-c4ccc(F)cc4)c3n2)cc1O	-15%
Cc1nnc(SCCn2c(N3CCN(Cc4ccccc4)CC3)nc3c2c(=O)[nH]c(=O)n3C)s1	4%
COc1cc(OC)cc(-c2nc3n(n2)C(c2cccnc2)C2=C(CC(C)(C)CC2=O)N3)c1 (stereo not drawn)	1%
Cc1nnc(NC(=O)CSc2nnc(CNC(=O)c3ccco3)o2)s1	-8%
Cc1c(C)n2c(SCC(=O)N3CCCCCC3)nnc2[nH]c1=O	-19%
CCOc1ccccc1C(=O)N1CCN=C1SCc1cccnc1	-11%
CSc1nc2ccc3nc(NC(=O)c4ccc(C)cc4)sc3c2s1	2%
CCOc1ccc(C(=O)c2cn(Cc3cccc(F)c3)c3cc4c(cc3c2=O)OCCO4)cc1	-13%
Cc1ccc(C(=O)c2cn(CC(=O)Nc3ccc(Cl)cc3)c3cc4c(cc3c2=O)OCCO4)cc1C	17%
CCn1c(SCC(=O)NCc2ccc3c(c2)OCO3)nnc1-c1c[nH]c2ccccc12	-20%
Fc1ccc(Nc2nc(N3CCCC3)nc3nccnc23)cc1	-1%
C#CCSc1nc2c(cnn2-c2ccc(Cl)cc2)c(=O)[nH]1	2%
COc1ccc(CC(=O)Nc2nnc(-c3ccccc3)s2)cc1	-2%
CC(C)(C)c1ccc(-n2c(=O)[nH]c3c(C(N)=O)nc(-c4ccc([N+](=O)[O-])cc4)nc32)cc1	-11%
COc1ccc(NC(=O)Cn2cc(C(=O)c3ccc(Cl)cc3)c(=O)c3cc4c(cc32)OCCO4)cc1	-4%
Cc1nnc(NC(=O)CSc2cn(Cc3ccccc3)c3ccccc23)s1	2%
CCOC(=O)c1nn(-c2cccc(Cl)c2)c(=O)c2c(NC(=O)c3ccc(S(=O)(=O)N(CC)CC)cc3)scc12	3%
Cc1ccc(C(=O)Nc2sc3c(c2C(N)=O)CC(C)(C)NC3(C)C)cc1	-9%
CCOc1cccc(/C=N\NC(=O)Cn2cnc3ccccc32)c1O	-6%
COc1cc(/C=C2/SC(N3CCN(c4ccc([N+](=O)[O-])cc4)CC3)=NC2=O)ccc1O	-13%
Cc1cc2c(cc1C)NC(CC(=O)Nc1cccc(Cl)c1C)C(=O)N2 (stereo not drawn)	17%
COc1ccc2nc(NNC(=O)c3cc(=O)c4ccccc4o3)sc2c1	?
CCOC(=O)Cn1c(=O)c2c(nc3n(-c4cc(C)ccc4C)c(C)c(C)n23)n(C)c1=O	-13%
O=C(Cn1cnc2c(cnn2-c2ccc(Cl)cc2)c1=O)NC1CCCCC1	-3%
C#CCn1c(=NC(=O)CCC)sc2cc(S(N)(=O)=O)ccc21	1%
O=c1[nH]cc(S(=O)(=O)Nc2ccc(Cl)c(Cl)c2)c(=O)[nH]1	-5%
Fc1cccc(-c2nnn3c2nc(NCCc2ccc(Cl)cc2)c2ccccc23)c1	6%
Cc1ccc(-n2nnnc2C(=Cc2ccc(O)cc2)c2nnnn2-c2ccc(C)cc2)cc1	-2%
N#Cc1ccc(-c2csc(NC(=O)c3cc4cc([N+](=O)[O-])ccc4s3)n2)cc1	-5%
NC(=O)Cn1c(=O)c2ccc(Cl)cc2n2nncc12	-12%

Retrieved by structure from above:
compound	Mtb growth
COc1ccc2nc(NNC(=O)c3cc(=O)c4ccccc4o3)sc2c1	?
CCOc1cccc(/C=N\NC(=O)Cn2cnc3ccccc32)c1O	-6%

Part of the list above, field by field.
mol: Cc1nnc(NC(=O)CSc2cn(Cc3ccccc3)c3ccccc23)s1
  Mtb growth: 2%
mol: CCOC(=O)c1nn(-c2cccc(Cl)c2)c(=O)c2c(NC(=O)c3ccc(S(=O)(=O)N(CC)CC)cc3)scc12
  Mtb growth: 3%

(next part)
compound	Mtb growth
COc1ccc(NC(=O)C2=C(C)NC(=O)NC2c2ccc(C)cc2)cc1 (stereo not drawn)	-3%
Cc1ccc(NC(=O)c2oc3ccccc3c2NC(=O)CC(C)(C)C)cc1	6%
O=C(O)/C=C/c1nc2ccccc2s1	-1%
Cc1ccc(-c2csc(NC(=O)c3ccc4c(c3)OCCO4)n2)cc1C	0%
Cc1nc2nc[nH]n2c(=O)c1CCC(=O)O	-7%
Cc1ccc(-n2ncc3c(Nc4cccc5ccccc45)ncnc32)c(C)c1	71%
Fc1ccc(CSc2ncnc3nc[nH]c23)cc1	8%
COc1ccc(Cl)c2sc(N3CCN(C(=O)c4ccc(F)cc4)CC3)nc12	4%
COc1ccc(OC)c(NS(=O)(=O)c2ccc3[nH]c(=O)[nH]c3c2)c1	-6%
Cc1cccc(CC(=O)N2CCN=C2SCc2ccc([N+](=O)[O-])cc2)c1	3%
O=C(NCC1COC2(CCCC2)O1)C(=O)Nc1ccccc1F (stereo not drawn)	5%
Nc1[nH]c(=O)[nH]c(=O)c1N=Nc1cccc(Br)c1	-2%
Cc1nc2ccccn2c1/C(O)=C1\C(=O)C(=O)N(CCCn2ccnc2)C1c1ccncc1 (stereo not drawn)	1%
Cc1ccccc1N/C=C(\C#N)c1nc(-c2ccc3c(c2)OCO3)cs1	-2%
CCOC(=O)c1nn(-c2ccc(F)cc2)c(=O)c2c(NC(=O)CCCl)scc12	5%
CCOc1ccc(C(=O)Nc2c(N)nc(SCC(=O)NCc3ccc4c(c3)OCO4)[nH]c2=O)cc1	-17%
Cc1ccc(S(=O)(=O)Nc2ccccc2C(=O)Nc2nc(-c3ccc4c(c3)OCCO4)cs2)cc1	1%
Cc1cccc(N2C(=O)CCC2=O)c1	-15%
Cc1ccc(CSc2nnc(Cn3c(=O)sc4ccccc43)n2C)cc1	6%
Cc1ccc(CNS(=O)(=O)c2cc3c4c(c2)CCN4C(=O)CC3)cc1	4%
COC(=O)c1ccc2nc(NC(=O)c3cccs3)sc2c1	10%
O=C(NCc1ccco1)C(=O)Nc1cc2c3c(c1)CCC(=O)N3CCC2	0%
